# Screens (PubChem BioAssay)
# KCNQ2 enhance = KCNQ2 (rat) channel potentiation | O88943 | B-score at 10 µM | AID 2239 | CHO-K1 KCNQ2, FluxOR thallium flux fluorescence; hits give high values | 310,000 tested, 0.54% active;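 active = fluorescence ratio B-score at least 3 SD of library B-scores, with initial fluorescence B-score within 3 SD, cut at about 5.3 in these data; same plate scores as AID 2156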;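 also: B-score of peak minus minimum over baseline fluorescence ratio after K+ and Tl+ stimulus; positive B-score means potentiation of KCNQ2 with more thallium influx and brighter signal; only the inactives scoring about 0 or higher are listed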
# Target sequence (O88943 whole entry, looked up): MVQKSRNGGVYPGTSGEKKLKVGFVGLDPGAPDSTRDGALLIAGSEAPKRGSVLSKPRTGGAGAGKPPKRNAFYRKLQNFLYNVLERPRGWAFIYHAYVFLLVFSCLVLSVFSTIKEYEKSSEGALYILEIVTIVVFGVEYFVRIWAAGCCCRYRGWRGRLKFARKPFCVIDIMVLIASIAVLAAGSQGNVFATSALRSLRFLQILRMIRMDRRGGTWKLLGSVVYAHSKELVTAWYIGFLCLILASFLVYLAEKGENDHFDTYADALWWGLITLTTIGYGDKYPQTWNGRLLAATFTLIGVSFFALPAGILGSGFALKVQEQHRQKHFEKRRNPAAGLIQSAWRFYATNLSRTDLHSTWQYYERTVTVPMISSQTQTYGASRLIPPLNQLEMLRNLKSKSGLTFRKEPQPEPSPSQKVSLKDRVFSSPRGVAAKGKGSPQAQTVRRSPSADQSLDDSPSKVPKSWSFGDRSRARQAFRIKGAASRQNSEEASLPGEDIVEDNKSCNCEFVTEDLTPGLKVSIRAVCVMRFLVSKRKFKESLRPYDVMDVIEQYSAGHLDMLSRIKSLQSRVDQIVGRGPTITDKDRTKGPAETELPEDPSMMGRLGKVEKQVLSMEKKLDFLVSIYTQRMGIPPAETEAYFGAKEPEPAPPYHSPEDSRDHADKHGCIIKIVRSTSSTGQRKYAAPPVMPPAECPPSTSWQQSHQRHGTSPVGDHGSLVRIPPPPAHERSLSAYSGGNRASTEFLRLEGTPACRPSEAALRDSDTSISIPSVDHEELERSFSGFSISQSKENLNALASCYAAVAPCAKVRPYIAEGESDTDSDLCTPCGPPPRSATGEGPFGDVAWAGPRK
# KCNQ2 enhance baseline = further read-out of KCNQ2 enhance, marked with its call; B-score; compound at 10 µM; measured here: initial fluorescence intensity artifact check;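 brightness before thallium and not channel activity; 0 = typical well and far values either way flag optical interference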
# Active calls of the source: *. Some of the compounds tested; the hit share may differ from the screen's.
Compound,KCNQ2 enhance,KCNQ2 enhance baseline
Cc1ccc(-c2ccccc2NC(=O)CS(=O)CC(=O)Nc2ccc(C)c(Cl)c2)o1 (stereo not given),2.9,-1.3
Fc1ccc(/C=N/n2c(-c3cccs3)n[nH]c2=S)cc1,3.3,0.15
O=C(CNC(=O)C(c1ccccc1)c1ccccc1)N/N=C\c1cccc(O)c1,2.1,1.8
CCOC(=O)C1NN=C(C(=O)c2ccccc2)C1c1ccc(Cl)cc1 (stereo not given),0.13,-1.1
COCc1cc(C)nc(OCC(=O)N/N=C/c2ccc(O)cc2O)c1C#N,0.39,-0.82
Cc1ccccc1C(=O)NNC(=O)C1CCN(c2ncccn2)CC1,0.3,1.3
Cc1cccc(NC(=O)C2C3C=CC4(O3)C2C(=O)N(CCCN2CCCC2)C4C(=O)NC2CCCC(C)C2C)c1 (stereo not given),0.1,-1.4
Cc1nc(NS(=O)(=O)c2ccccc2C)c2c3c(sc2n1)CCC3,0.54,0.87
CCCN1/C(=C(/C#N)C2=NS(=O)(=O)c3ccccc32)N(C)c2ccccc21,1,3.8
CN(C)c1cccc(C(=O)NNC(=S)NC2CC3CCC2C3)c1 (stereo not given),1.3,0.04
Cc1cccc(-c2noc(CCCC(=O)N3CCOCC3)n2)c1,1.2,-0.34
CC(C)OC(=O)CSc1ncnc2c1cnn2Cc1ccccc1,1.8,-0.68
O=S(=O)(c1ccc(F)cc1)N1CC=C(c2ccccc2)CC1,0.9,-0.87
COc1ccc(OC)c(CCNC(=O)CCCc2nnc3n(C)c(=O)c4sccc4n23)c1,0.95,-0.9
CC(C)(C)n1nc2c(c1NC(=O)Cc1cccs1)CSC2,9.5*,0.27*
CCC(=O)N1CCN=C1SCc1cccc(C(F)(F)F)c1,0.51,0.76
OCCC1CN(C2CCSCC2)CCN1C1CCCC1 (stereo not given),0.88,0.5
Cc1ccccc1CN1CCCNC1=O,0.39,-0.5
CC12CCC(C(=O)NNc3ccccc3)(OC1=O)C2(C)C (stereo not given),0.01,-0.25
Cc1cc(NC(=O)CCCN2C(=O)c3cccnc3C2=O)ccc1Br,0.33,-0.48
COC(=O)c1ccc(NC(=S)NC2c3ccccc3CC2O)cc1 (stereo not given),0.74,-0.45
Cc1ccc(NC(=O)CNc2ccc(OC(C)C)cc2)cc1,2,-0.07
CCN(CC)CCN(Cc1cc2cc3c(cc2[nH]c1=O)OCCO3)C(=S)NCC1CCCO1 (stereo not given),0.98,-1.4
O=C(NC(C(=O)N/N=C/c1ccccc1)c1n[nH]c(=O)c2ccccc12)c1ccccc1 (stereo not given),0.04,0.98
COc1cccc(-c2nnn(CC(=O)Nc3ccc(C)cc3C)n2)c1OC,0.23,0.11
CCn1ncc(Br)c1C(=O)Nc1ccc(C(C)C)cc1,0.81,-2
Cc1c(C(=O)NNS(=O)(=O)c2ccccc2Cl)sc(=S)n1C,0.73,-0.47
Cc1cc2c(Nc3ccccc3)ncnc2s1,1,-0.27
CCCn1c(=S)[nH]c2cc(C(=O)N3CCCC(C(=O)OCC)C3)ccc2c1=O (stereo not given),0.01,0.11
Cn1nc(C(=O)NC2CCCCC2)c2c1-c1ccccc1S(=O)(=O)C2,0.37,0
CCOC(=O)C(CC(=O)O)NCc1ccco1 (stereo not given),1.1,-0.04
Cc1cc(C2=NNC(=Nc3ccccc3)SC2)c(C)n1C,0.56,0.41
CC(=O)N(c1ccc(Cl)cc1)c1cn(C(C)=O)c2ccccc12,1.8,-0.73
O=C(CN(C(=O)CNC(=O)c1ccco1)c1ccccc1F)NC1CCCCC1,0.03,-1.6
Cn1cc(/C=C/C(=O)N2CCCC(C(=O)c3cccc(C(F)(F)F)c3)C2)cn1 (stereo not given),4.3,4.3
O=C(Nc1ccc2c(c1)OCO2)C1CCCN1C(=O)OCc1ccccc1 (stereo not given),0.63,-1.1
Cc1nn(C)c(Cl)c1CN1CCC(n2nccc2NC(=O)C2CCCC2)CC1,1.1,1.2
CN(Cc1cccs1)C(=O)CSc1nc2ccccc2[nH]1,0.03,0.57
C=CCn1c(=O)c2ccc(C(=O)NCc3ccccc3)cc2n(Cc2ccc(C)cc2)c1=O,2.5,0.5
CC(=O)N(/N=C1/C(=O)Nc2ccccc21)c1ccccc1,1.1,0.07
CCn1c(N2CCN(CC(=O)c3c(C)n(C)c4ccc(OC)cc34)CC2)nc2c1c(=O)[nH]c(=O)n2C,0.06,-0.95
Nc1c(C(=O)O)cnc2c(-c3ccc(Cl)cc3)cnn12,1.2,1.4
Cc1ccc(N2CC(C(=O)N3CCC(c4nc5ccccc5[nH]4)CC3)CC2=O)cc1C (stereo not given),1.4,-2.1
CCc1c(C)c2ccc(O)c(CN3CCCC3)c2oc1=O,0.03,-0.2
O=C(CN1C(=O)c2ccccc2C1=O)N1CCOCC1,0.54,1.6
COc1ccc(CN2CCN(CCCCOc3ccc(Cl)cc3)CC2)c(OC)c1OC,0.29,3.9
COc1ccc2nc(/C=N/NC(=O)CCNC(=O)OC(C)(C)C)ccc2c1,2.6,-0.17
CCN1CCN(c2ccc(NC(=O)c3cccc4ncccc34)cc2)CC1,0.86,0.42
c1ccc(CCn2c(SCc3ccccc3)nnc2-c2ccncc2)cc1,1.4,0.49
Cc1ccc(/C=[N+](\[O-])c2ccc(N(C)C)cc2)c2nsnc12,1,1
Cc1cc(=O)oc2cc(OCC(=O)N3CCOCC3)ccc12,1.3,-0.75
Cc1cccc(C)c1NC(=O)C(NC=O)c1ccccc1 (stereo not given),0.7,-1.9
O=C(NC1CCCC1)c1n[nH]c2ccccc12,0.19,0.08
O=C(O)c1cc2c(cc1Cl)N1CCCCCC1=NS2(=O)=O,0.15,0.41
COc1ccc2[nH]c(=O)c(CN(C(=O)NC3CCCCC3)C3CCCC3)cc2c1,0.02,-0.17
O=C1CCCc2c1nc(-c1ccc([N+](=O)[O-])cc1)n2O,0.36,1.5

# Brought forward from above: 6 compounds; new compounds follow.
Compound,KCNQ2 enhance,KCNQ2 enhance baseline
Cc1cc(=O)oc2cc(OCC(=O)N3CCOCC3)ccc12,1.3,-0.75
Cc1cccc(C)c1NC(=O)C(NC=O)c1ccccc1 (stereo not given),0.7,-1.9
O=C(NC1CCCC1)c1n[nH]c2ccccc12,0.19,0.08
O=C(O)c1cc2c(cc1Cl)N1CCCCCC1=NS2(=O)=O,0.15,0.41
COc1ccc2[nH]c(=O)c(CN(C(=O)NC3CCCCC3)C3CCCC3)cc2c1,0.02,-0.17
O=C1CCCc2c1nc(-c1ccc([N+](=O)[O-])cc1)n2O,0.36,1.5
CSC(=Nc1ccccc1)C1=C(O)COC1=O,1.2,-0.2
Cc1nn(C)c(C)c1/C=C(\C#N)C(N)=O,0.27,0.98
CC(C)(C)NC(=O)c1cccc(NC(=O)Cc2ccc(Br)cc2)c1,0.51,-0.65
CCCn1c(=S)[nH]c2sc3c(c2c1=O)CCCC3,10*,-1*
CC1Sc2ccc(C(=O)O)cc2NC1=O (stereo not given),1.9,0
O=C(Nc1cccc(Cl)c1)C1C2C=CC3(O2)C1C(=O)N(CCN1CCCCC1)C3C(=O)NC1CCCCC1 (stereo not given),0.93,0.02
COCCN1C(=O)N(c2cccc(OC)c2)C(=O)C1CC(=O)Nc1cccc(F)c1 (stereo not given),0.01,-0.26
CCCOC(=O)c1cccc(NC(=O)COc2ccc([N+](=O)[O-])cc2)c1,0.37,0.39
Cc1cccc(N2CCN(Cc3c(C)n(C)n(-c4ccccc4)c3=O)CC2)c1C,1.2,0.05
O=C(O)CC(NC(=O)c1cccc(F)c1)c1ccc(OC2CCCC2)cc1 (stereo not given),0.05,-0.9
Cc1nn(Cc2ccc(Cl)c(Cl)c2)c(C)c1NC(=O)c1cc(-c2ccc3c(c2)OCO3)on1,1,0.85
CC(=O)Nn1cc2c(c1-c1ccccc1)c(=O)n(C)c(=O)n2C,0.02,-0.26
CC(=O)c1ccc(N2CCN(C(=O)/C=C/c3ccc(S(=O)(=O)NCc4ccco4)cc3)CC2)cc1,0.39,-1.2
Cc1ccccc1CC(=O)N1CCN(S(=O)(=O)c2cccs2)CC1,0.06,0.8
CCCNC(=O)c1ccccc1NS(=O)(=O)c1ccc(OC)c(OC)c1,1.2,0.78
CCc1nnc2c(NCCc3ccc(OC)c(OC)c3)nc3ccccc3n12,11*,-0.16*
CC(C)OC(=O)Cn1cnc2ccc(Br)cc2c1=O,1.4,0.05
COC(=O)c1cccc(NC(=O)NC(=O)c2ccccc2Cl)c1,2,0.76
O=C(c1cccs1)N1CCN(C(=O)C(c2ccccc2)c2ccccc2)CC1,0.16,-1.4
CCC1(C)Cc2c(C#N)c(N)n(-c3ccccc3)c(=S)c2CO1 (stereo not given),0.88,-0.12
Oc1c(Br)cc(Br)cc1C=Nc1cccc2ncccc12,14*,1.6*
CC(=O)Oc1ccc(-c2ccc(C(=O)Nc3cccc(S(=O)(=O)N4CCOCC4)c3)cc2)cc1,1.5,-1.2
CCOC(=O)CSc1nnc(-c2ccc([N+](=O)[O-])cc2)o1,1.2,0.52
c1ccc(COC2CCCN(Cc3nc(-c4cccs4)no3)C2)nc1 (stereo not given),0.18,1.8
O=C(NC(Cc1ccccc1)C(=O)O)/C(=C/c1ccco1)NC(=O)c1cccc([N+](=O)[O-])c1 (stereo not given),0.04,-0.99
COC(=O)C(Cc1ccccc1)NC(=O)c1cccc(S(=O)(=O)N(C)C)c1 (stereo not given),0.56,-1
O=C(Nc1sc(-c2ccccc2)cc1C(=O)O)c1ccccc1,3.6,-0.38
CCO[C@@H]1OC(C(N)=O)=C[C@H](C2CC2)[C@H]1CCCO,0.47,-0.16
CCN(CC)CCCNC(=O)c1ccc2c(Cl)c3c(nc2c1)CCCC3,0.58,-0.8
O=C1NC2(CCCCC2)N=C1c1ccccc1,1.6,1.9
Cc1onc(-c2ccccc2)c1C(=O)Nc1ccc(S(=O)(=O)NC2=NCCCCC2)cc1,0.16,0.01
C#CCOC(=O)CCCNc1ccc([N+](=O)[O-])cc1[N+](=O)[O-],2,-1.4

# Grouped by structure: the compounds so far containing a cyano group (4)
Compound,KCNQ2 enhance,KCNQ2 enhance baseline
COCc1cc(C)nc(OCC(=O)N/N=C/c2ccc(O)cc2O)c1C#N,0.39,-0.82
CCCN1/C(=C(/C#N)C2=NS(=O)(=O)c3ccccc32)N(C)c2ccccc21,1,3.8
Cc1nn(C)c(C)c1/C=C(\C#N)C(N)=O,0.27,0.98
CCC1(C)Cc2c(C#N)c(N)n(-c3ccccc3)c(=S)c2CO1 (stereo not given),0.88,-0.12

# (list continues)
Compound,KCNQ2 enhance,KCNQ2 enhance baseline
CCCCNC(=S)NNC(=O)c1csc(C)c1,0.02,-0.05
O=c1[nH]c(N2CCOCC2)cc2ccccc12,1.2,-1
COC(=O)c1ccc(Oc2nc(Nc3ccc(F)cc3)nc(N3CCCC3)n2)cc1,0.51,-1.6
COc1ccc(S(=O)(=O)N2CCCCC2)cc1NS(=O)(=O)c1ccccc1F,4.1,0.48
CCOc1ccc(OCC(=O)OCc2csc(CC(=O)Nc3ccccc3C)n2)cc1,1.7,0.12
COc1ccc(CN2CC(C(=O)N3CCOCC3)CC2=O)cc1 (stereo not given),0.15,3.2
COc1ccc(NS(=O)(=O)c2c(C)[nH]c(C)c2C(=O)N2CCCCC2)cc1Cl,0.1,1.5
COc1cccc(C2C(C#N)=C(N)OC3=C2C(=O)CCC3)c1OC(=O)c1ccco1 (stereo not given),0.6,1.9
N#CC1=C(N)Nc2ncnn2C1c1ccc([N+](=O)[O-])cc1 (stereo not given),0.71,-0.69
COc1ccc(NS(=O)(=O)c2cc(NC(=O)c3cc(=O)c4ccccc4o3)ccc2OC)cc1,2,-0.36
CC1=C(C(=O)Nc2ccc(Cl)cc2C(=O)N2CCC(C(N)=O)CC2)SCCO1,1.1,-1.7
COc1ccc(NC(=O)N2CCCC2C(=O)Nc2cccc(C)c2C)cc1 (stereo not given),0.1,1.8
CC(O)C(=O)NCCOCCOCCNC(=O)C(C)O (stereo not given),1.3,-1.3
O=C(c1cc2cc(Cl)ccc2[nH]1)N1CCN(c2ccccn2)CC1,0.25,-1
CCC(=O)Nc1cccc(C2=NOC3(C2)C[C@@H](C(N)=O)N(C(=O)CC)C3)c1 (stereo not given in full),0.51,-0.09
COc1cc(NC(=O)c2ccc(F)cc2)c(OC)cc1Cl,0.87,-1.8
CCOC(=O)N1CCC(=NNC(=O)COc2cccc(C)c2)CC1,0.16,0.93
O=C1NCCCC1C(=O)Nc1ccccc1C(F)(F)F (stereo not given),1.9,0.01
CCCCC1=NC2(CCCC2)C(=O)N1Cc1ccc(-c2ccccc2-c2nn[nH]n2)cc1,0.02,0.92
CN(C)c1c(F)cc(C(=O)NC(=O)NCc2cccnc2)cc1F,1.2,-2.4
CC1CCN(CC(=O)Nc2ccc(S(=O)(=O)N3CCCCC3)cc2)CC1,0.02,1.7
COc1ccc(/C(N)=N/OC(=O)c2cccc([N+](=O)[O-])c2)cc1OC,0.96,0.02
O=C(NC1CCOCC1)C1CCC(=O)N(CCc2ccc(Cl)cc2)C1 (stereo not given),0.88,0.98
COc1ccc(CN(C(=O)c2cc(=O)c3ccccc3o2)C2CCS(=O)(=O)C2)cc1OC (stereo not given),0.67,-0.63
